Ecoli growth: inhibitors of Escherichia coli growth | OD600, 23 h; active compounds read low | 330,000 compounds, 0.21% hits | AID 1053175 | OD600 absorbance (test concentration not listed);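 active means OD600 absorbance below the run mean of sample wells minus 3.6 SD, in any replicate, cut at about 0.56 in these data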;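 further: stock transfer was 300 nL into about 60 µL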
UCH37 inh: human UCH37 deubiquitinating enzyme inhibition | Q9Y5K5 | purified proteasome/UCH37, Ub-AMC cleavage fluorescence | inhibition, % (concentration not given with the values) | 330,000 compounds, 0.33% hits;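 active means mean of two replicates above 20%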;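 further: 0% = compound-free wells with enzyme and 100% = wells lacking proteasome; stock transfer was 100 nL into about 20 µL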
Target sequence (Q9Y5K5 whole entry, looked up): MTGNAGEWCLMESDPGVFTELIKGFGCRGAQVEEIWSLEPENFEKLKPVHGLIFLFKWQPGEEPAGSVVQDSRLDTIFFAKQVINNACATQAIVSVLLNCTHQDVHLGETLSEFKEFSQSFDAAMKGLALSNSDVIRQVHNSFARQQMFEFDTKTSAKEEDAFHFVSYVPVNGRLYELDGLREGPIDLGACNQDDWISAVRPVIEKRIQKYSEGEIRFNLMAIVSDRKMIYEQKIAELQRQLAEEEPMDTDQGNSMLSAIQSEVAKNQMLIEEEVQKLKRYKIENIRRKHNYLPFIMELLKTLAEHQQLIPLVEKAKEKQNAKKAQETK
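Schedule: 30 min plus 25 min, room temperature / Material: human UCH37 within purified proteasomes / Technique: AMC fluorescence intensity at 355/460 nm / Buffer or medium: pH 7.4 Tris-HCl (50 mM) with ovalbumin, ATP-MgCl2, DTT / Controls: wells without proteasome as full block, compound-free enzyme plus substrate as uninhibited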
Numbers without * were called inactive; i = inactive. The list is partial; the hit share may differ from the screen's.

SMILES	Ecoli growth	UCH37 inh
O=C(O)COc1ccccc1C=NNC(=O)CSc1nc2ccccc2n1Cc1ccccc1	0.68	4.4
Cc1nc2ccccc2c(=O)n1N=Cc1ccccc1	0.7	0.0
CN(Cc1c(C(=O)NN=Cc2cccc(O)c2)nnn1-c1nonc1N)C1CCCCC1	0.69	-8.5
CN(C)C=Nc1sc2c(c1C#N)CCCCC2	0.63	6.5
CSc1ccc(C=NNC(=O)c2ccccc2Cl)cc1	0.69	2.2
COc1ccc(OCc2cc(C=NNC(=O)c3ccccc3)ccc2OC)cc1	0.76	0.9
COC(=O)c1ccc(COc2ccc(C=NO)cc2OC)o1	0.64	2.5
CC1=NNC(=O)C1CCC(=O)NN=C/C(Br)=C/c1ccccc1 (centres undefined)	0.7	0.8
Clc1cccc(NN=Cc2ccc(N3CCOCC3)cc2)c1	0.65	-23
CC(=O)NN=C(C)CC(=O)Nc1ccc2c(c1)OCCO2	0.7	3.5
CC(=O)C(=NNc1cccc(C)c1)N1CCOCC1	0.69	13
S=c1[nH]nc(C2CCCCC2)n1N=C/C(Cl)=C\c1ccccc1	0.7	1.6
Clc1cccc(C(Cc2nc3ccccc3[nH]2)=NNc2ccccc2)c1	0.68	6.2
CC(SCc1ccccc1)C(=O)NN=Cc1ccc2c(c1)OCO2 (centres undefined)	0.75	1.4
COc1cccc(OCc2cc(C=NNc3ccc(C(=O)O)cc3)ccc2OC)c1	0.7	-18
CC(Cc1nnn(-c2cc(C)on2)n1)=NO	0.59	1.3
CC(C)n1c(N=Cc2ccccc2O)nc2ccccc21	0.59	0.3
Cc1ccsc1C(=O)NN=Cc1ccc([N+](=O)[O-])cc1	0.67	-0.9
CC(Nc1n[nH]c(=O)[nH]c1=O)C(=O)NN=Cc1ccccc1 (centres undefined)	0.68	3.3
CCCCn1c(N=Cc2c[nH]c3ccccc23)nc2ccccc21	0.66	6.8
COc1ccc(/C=C(/NC(=O)c2ccccc2)C(=O)NN=Cc2ccc3c(c2)OCO3)cc1OC	0.68	12
O=C(COc1ccc(-c2ccccc2)cc1)NN=Cc1ccccc1Br	0.74	3.7
Cc1cc(C=NNC(=O)c2ccccn2)c(C)n1-c1cccc([N+](=O)[O-])c1	0.68	8.7
CC(=NNC(=O)c1csc(C)c1C)c1ccc(C)s1	0.67	1.6
CCC(C)NC(=O)CON=Cc1ccc(C(=O)OC)cc1 (centres undefined)	0.72	3.8
The list continues:
SMILES	Ecoli growth	UCH37 inh
COc1ccc(C=NNC(=O)CNc2c(Br)cc(C)cc2Br)c(C(=O)O)c1OC	0.69	0.4
Cc1nc2ccccc2c(=O)n1N=Cc1c(O)ccc2ccccc12	0.68	0.7
C/C(C=NNC(=O)NC1CCCCC1)=C\c1ccccc1	0.69	2.4
CC(Nc1cccc2ccccc12)C(=O)NN=Cc1ccccn1 (centres undefined)	0.68	3.1
O=S1(=O)N=C(N(CCO)N=Cc2ccncc2)c2ccccc21	0.69	8.7
COc1ccc(C=NNC(=O)c2nc(-c3ccccc3)n(-c3ccccc3)n2)cc1	0.63	6.2
COc1cc(C=NNC(=O)c2c(-c3ccccc3)noc2C)cc(OC)c1OC	0.69	4.9
C=C(C)C1CC=C(C)C(=NNC(=O)COc2cccc(C)c2)C1 (centres undefined)	0.68	3.4
COc1ccc(OC)c(C=NNC(=O)C(O)c2ccccc2)c1 (centres undefined)	0.63	i
C(=Nn1cnnc1)c1ccc2c(c1)OCCO2	0.65	-6.3
O=C(NN=Cc1ccoc1)c1ccc(Br)cc1	0.63	1.3
CCCOc1ccc2[nH]c(C(=O)NN=Cc3cc(OC)c(OC)c(OC)c3)cc2c1	0.58	-64
C=CCSc1nncn1N=Cc1ccc(OC)cc1	0.67	6.1
COCCNC(=O)C(c1ccccc1)N(CCOC)C(=O)Cn1nnc2ccccc21 (centres undefined)	0.75	-0.9
Cc1ccc(Cn2c(SCC(=O)NN=Cc3ccc(C)o3)nc3ccccc32)cc1	0.7	4.4
COC(=O)c1ccccc1NC(=O)C=NO	0.64	1.7
COc1cc(OC)c(OC)cc1C=NNC(=O)CSc1ccccc1F	0.67	-24
CCCc1cc(C(=O)NN=Cc2ccc(C)o2)c2ccccc2n1	0.69	8.6
O=C(CC(=O)NN=Cc1ccc(F)cc1)NCCc1ccccc1	0.63	2.9
CC(=O)Nc1ccc(C=NN2C(=O)NC(C)(c3ccc(OC(F)F)cc3)C2=O)cc1 (centres undefined)	0.69	1.6
CN(C)S(=O)(=O)c1ccc(C(=O)NCC(=O)NN=Cc2ccccc2)cc1	0.69	2.1
Cc1[nH]c2ccccc2c1C=NNC(=O)c1cc(-c2cccs2)[nH]n1	0.65	-15
Cc1ccc(CN2CCN(N=Cc3ccco3)CC2)c(C)c1	0.69	4.4
NC(N)=NN=Cc1ccc(Cl)c(Cl)c1	0.62	7.1
CCOC(=O)C1=C(C)N=c2sc(=Cc3ccc(OCC(=O)O)c(OC)c3)c(=O)n2C1c1ccc(Cl)cc1 (centres undefined)	0.6	14

Looked up one by one from above:
SMILES	Ecoli growth	UCH37 inh
C/C(C=NNC(=O)NC1CCCCC1)=C\c1ccccc1	0.69	2.4
CCCOc1ccc2[nH]c(C(=O)NN=Cc3cc(OC)c(OC)c(OC)c3)cc2c1	0.58	-64
COCCNC(=O)C(c1ccccc1)N(CCOC)C(=O)Cn1nnc2ccccc21 (centres undefined)	0.75	-0.9

More records
SMILES	Ecoli growth	UCH37 inh
CCCCNC(=O)C(C1CCCCC1)N(CCN(C)C)C(=O)CCCN1C(=O)NC(c2ccc(-c3ccccc3)cc2)C(C(=O)OCc2ccccc2)=C1C (centres undefined)	0.64	0.7
Cc1nnc(-c2ccccc2)c(=O)n1N=Cc1c(O)ccc2ccccc12	0.68	-2.0
O=c1c2c(-c3cccs3)csc2ncn1N=Cc1ccc(OC(F)F)cc1	0.7	-2.9
CC(=NNS(=O)(=O)c1ccc(C)cc1)[C@H]1C[C@@H]1c1ccccc1	0.69	3.7
O=[N+]([O-])c1cc(-c2ccc(C=Nn3cnnc3)o2)cc([N+](=O)[O-])c1	0.68	16
Nc1nnnn1N=Cc1ccccn1	0.68	1.5
CC(=O)Nc1ccc(S(=O)(=O)N(C)CC(=O)NN=Cc2ccc(C(=O)O)cc2)cc1	0.67	2.0
Cc1cc(C)cc(OCC(=O)NNC(=O)c2cc3ccccc3oc2=O)c1	0.68	7.3
N#CC(=NNc1ccccc1F)c1nc(-c2ccccc2)cs1	0.76	-1.7
CC(=NNC(=O)c1cccc(NN=C(C)c2ccccc2)c1)c1ccccc1	0.67	2.8
COc1cc(Cl)cc(C=NNC(N)=O)c1O	0.68	-53
COc1cc(C=NN=C2CC3CCC2(C)C3(C)C)ccc1O (centres undefined)	0.79	4.0
C(CCc1ccccc1)=Nn1cnnc1	0.65	3.7
Clc1ccc(C=NNc2ncnc3nc[nH]c23)cc1	0.6	8.9
Cn1c(=O)[nH]c(=O)c2c1nc(Br)n2CC=NNC(N)=S	0.68	2.0
Cc1c(NC(=O)C(=O)NN=Cc2cccs2)c(=O)n(-c2ccccc2)n1C	0.71	6.8
COc1ccc(OCCn2cc(C=NNC(=O)c3ccncc3)c3ccccc32)cc1	0.7	-0.4
CCOC(=O)C(=NO)C(C)=NNC(=O)C(=O)Nc1cc(Cl)ccc1Cl	0.71	4.3
CCCCCC1CC1C(=O)NN=Cc1ccc(N(C)C)cc1 (centres undefined)	0.7	-30
CC(=NNC(=O)C1CCCC1)c1ccc(C(C)C)cc1	0.71	3.5
COc1ccccc1C=NNC(=O)c1cc2c(ccc3ccccc32)o1	0.63	-9.2
O=C(COc1ccccc1-c1ccccc1)NN=Cc1cccnc1	0.72	0.2
Cc1cc(C(=O)NN=Cc2c(C)n(C)c3ccccc23)n[nH]1	0.71	6.4
COc1ccc(C=NN=C2SCC(=O)N2c2c(C)n(C)n(-c3ccccc3)c2=O)cc1OC	0.7	5.3
O=C(CSC1CN(C(c2ccccc2)c2ccccc2)C1)NN=Cc1ccc(Cl)cc1Cl	0.67	2.4
The list goes on.
SMILES	Ecoli growth	UCH37 inh
Cc1cccn2c(C=NOCc3ccc(F)cc3)c(-c3ccc(Cl)cc3)nc12	0.76	-50
CC(Cn1nc([N+](=O)[O-])cc1C)=NNC(=O)c1ccc(O)cc1O	0.71	4.4
COc1ccc(N(C(C)C(=O)NN=Cc2ccc(OC)c(OC)c2)S(C)(=O)=O)cc1 (centres undefined)	0.62	3.5
O=[N+]([O-])c1ccc(Cl)c(-c2ccc(C=Nn3cnnc3)o2)c1	0.67	9.0
CC1=C(C(=O)Nc2ccccc2)C(c2ccc(C)o2)n2c(sc(=Cc3ccccc3)c2=O)=N1 (centres undefined)	0.7	3.0
CC(=NNS(=O)(=O)c1ccc(Cl)cc1)c1ccc2c(c1)OCO2	0.66	6.5
O=C(NN=Cc1ccc(F)cc1)c1ccccc1	0.65	0.5
N#Cc1c(Nc2ccccc2)c(C=NN=Cc2ccccc2)c[nH]c1=O	0.7	-19
COc1ccc(OC)c2[nH]c(C(=O)NN=Cc3ccccc3O)cc12	0.65	-12
O=C1CCCC(=NNC(=O)C2CCN(S(=O)(=O)c3cccs3)CC2)C1	0.73	5.0
CCCCc1n[nH]c2c1C(=NO)CC(C)(C)C2	0.7	1.1
COc1ccc(NC(=O)COc2ccc(C=NNC(=O)c3cccnc3)cc2OC)cc1	0.7	3.7
CC(=O)Nc1ccccc1NC(=O)CC(C)=NNC(=O)Cc1cccc2ccccc12	0.67	3.9
CC(=NNC(=O)NC12CC3CC(CC(C3)C1)C2)c1ccccc1	0.69	2.1
COc1ccc(C=NNc2nc(-c3ccc(Cl)cc3)cc(C(F)(F)F)n2)cc1OC	0.72	-0.3
Cc1ccc(NC(=S)NN=Cc2c(Cl)cccc2Cl)c(C)c1	0.68	7.4
CCOc1cc(C=NNC(=O)COc2ccccc2C)ccc1OC(=O)c1cccs1	0.7	3.2
NC(=NOCc1ccc([N+](=O)[O-])cc1)c1ccncc1	0.69	3.9
ON=C(CN1CCCCC1)c1ccccc1	0.69	3.0
Cc1nn(-c2ccccc2)c(C)c1C=NNC(=O)CSc1nnc(-c2ccccc2)n1-c1ccc(Cl)cc1	0.7	-0.1
COC(=O)c1ccc(C(O)=C(C#N)c2nc3ccccc3s2)cc1	0.64	13
Cn1nc(C(F)(F)F)c(C=NOC(=O)c2ccc(Cl)cc2)c1Cl	0.72	-1.7
O=C(NN=C/C(Cl)=C/c1ccc([N+](=O)[O-])cc1)C(=O)Nc1ccccc1C(=O)O	0.65	14
O=C(Cn1cnc2ccccc2c1=O)NN=Cc1ccc(Br)cc1	0.69	2.6
O=C(CNC(=O)c1ccc(F)cc1)NN=Cc1cc(Br)ccc1OCc1ccccc1	0.71	1.7

Structural class: the compounds so far containing two or more sulfur atoms (three)
SMILES	Ecoli growth	UCH37 inh
CC(=NNC(=O)c1csc(C)c1C)c1ccc(C)s1	0.67	1.6
O=c1c2c(-c3cccs3)csc2ncn1N=Cc1ccc(OC(F)F)cc1	0.7	-2.9
O=C1CCCC(=NNC(=O)C2CCN(S(=O)(=O)c3cccs3)CC2)C1	0.73	5.0

A second format for some results above.
Ecoli growth	UCH37 inh	SMILES
0.7	1.1	CCCCc1n[nH]c2c1C(=NO)CC(C)(C)C2
0.7	3.7	COc1ccc(NC(=O)COc2ccc(C=NNC(=O)c3cccnc3)cc2OC)cc1

Later entries:
SMILES	Ecoli growth	UCH37 inh
O=c1c2ccccc2nc(/C=C/c2ccc3c(c2)OCO3)n1CCCO	0.71	-17
Fc1cccc(C=NNc2nc3ccccc3[nH]2)c1	0.69	2.4
Cc1cccc(NC(=S)NN=Cc2c[nH]c3ccccc23)c1	0.63	6.7
Cn1ccsc1=NS(=O)(=O)c1ccc(F)cc1	0.71	-0.2
O=C(NN=Cc1ccc(N2CCOCC2)cc1)C1CC1	0.71	-136
COc1ccc(NC(=O)CON=C2CCCc3nonc32)c(OC)c1	0.7	4.0
CCOC(=O)c1c(C)[nH]c(C(=O)NN=Cc2ccccc2Cl)c1C	0.71	5.4
COc1ccc2cc(C(N)=O)c(=NNC(=O)c3ccccc3)oc2c1	0.62	-131
CCOc1cc(C=NNC(=O)CN2CCCCC2)ccc1OCc1cccc(Cl)c1	0.69	0.6
Cc1snc(SCC(=O)NN=C(N)COc2cccc(C(F)(F)F)c2)c1C#N	0.69	1.4
S=C(NN=Cc1ccccc1Cl)Nc1ccccc1	0.67	2.7
CC(=NNC(=O)c1ccc(-c2ccccc2)cc1)c1cc(O)cc(O)c1	0.65	-0.7
CC(=NNC(=O)c1cccnc1)c1ccccc1	0.69	2.4
O=C(CNc1cccc(C(F)(F)F)c1)NN=CC1CCCCC1	0.71	6.1
Brc1csc(C=NNc2nc3ccccc3s2)c1	0.68	-0.4
O=C(CN1CCCc2ccccc21)NN=Cc1ccc(F)cc1F	0.66	0.5
CN(C)Cc1c(C(=O)NN=Cc2ccco2)nnn1-c1nonc1N	0.7	7.4
CCOC(=O)NC(=O)C(C#N)=NNc1cccc(Cl)c1	0.65	10
COCCNC(=O)c1c(N)n(N=Cc2cccs2)c2nc3ccccc3nc12	0.68	i
COc1ccc(C=NNC(=O)c2cc(-c3ccccc3)nc3ccccc23)c(C(=O)O)c1OC	0.69	9.6
COc1ccc(C=NNC(=O)CSCC(=O)Nc2ccccc2)cc1OC	0.66	4.1

Structural class, the entries above containing a CF3 group.
SMILES	Ecoli growth	UCH37 inh
COc1ccc(C=NNc2nc(-c3ccc(Cl)cc3)cc(C(F)(F)F)n2)cc1OC	0.72	-0.3
Cn1nc(C(F)(F)F)c(C=NOC(=O)c2ccc(Cl)cc2)c1Cl	0.72	-1.7
Cc1snc(SCC(=O)NN=C(N)COc2cccc(C(F)(F)F)c2)c1C#N	0.69	1.4
O=C(CNc1cccc(C(F)(F)F)c1)NN=CC1CCCCC1	0.71	6.1

Bioassay records deposited in PubChem BioAssay by ICCB-Longwood Screening Facility, Harvard Medical School.
